Cruzain noTriton: inhibitors of Trypanosoma cruzi cruzain without detergent; P25779; Potency, µM, for inactives: max response, negative = inhibition, usual class: inhibitors; AID 1476; purified cruzain, Z-FR-AMC fluorescence, no detergent; 200,000 compounds, 2.3% hits; active = well fitted curve in the direction sought with a large enough effect; inconclusive = small, poorly fitted or top-dose-only effect, or another doubt; inactive = no such curve, though single readings can be large; an effect the other way counts as inactive or inconclusive;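 note: plate controls were enzyme without inhibitor for no effect and buffer without enzyme for full effect; nearly all actives have a fitted effect of over 40% in size; top concentration of the series not given in the record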
Target sequence (P25779 123-467 limits assumed): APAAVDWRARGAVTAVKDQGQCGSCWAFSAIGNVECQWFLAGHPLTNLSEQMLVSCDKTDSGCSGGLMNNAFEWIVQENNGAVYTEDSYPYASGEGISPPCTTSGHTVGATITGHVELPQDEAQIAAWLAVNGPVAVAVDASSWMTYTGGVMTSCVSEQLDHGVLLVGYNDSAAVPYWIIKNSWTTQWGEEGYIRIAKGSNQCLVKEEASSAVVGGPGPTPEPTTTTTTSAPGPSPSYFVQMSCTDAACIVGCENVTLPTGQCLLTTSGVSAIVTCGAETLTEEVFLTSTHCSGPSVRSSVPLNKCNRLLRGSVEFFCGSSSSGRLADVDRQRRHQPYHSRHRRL
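Purified cruzain at 1.5 nM, pre-incubated 15 min with compound at room temperature in 100 mM sodium acetate pH 5.5, 5 mM DTT, 0.00005% Triton X-100. Reaction started with 2 uM Z-FR-AMC; AMC fluorescence increase over 60 s gives rate.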
Cruzain Triton: inhibitors of Trypanosoma cruzi cruzain with detergent. P25779. purified cruzain, Z-FR-AMC fluorescence, 0.01% Triton. Potency, µM, for the others: max response, negative = inhibition, actives largely listed as inhibitors. 200,000 compounds, 0.43% hits. AID 1478; active = well fitted curve in the direction sought with a large enough effect; inconclusive = small, poorly fitted or top-dose-only effect, or another doubt; inactive = no such curve, though single readings can be large; an effect the other way counts as inactive or inconclusive;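 note: plate controls were neutral wells for no effect and buffer without enzyme for full effect; nearly all actives have a fitted effect of over 40% in size; top concentration of the series not given in the record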
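Read-out: AMC fluorescence (360 nm excitation, 450 nm emission), four reads over 2 min, first-to-third difference used. Conditions: cruzain 1.5 nM, Z-FR-AMC 2 uM, pH 5.5 acetate, 5 mM DTT, 0.01% Triton X-100.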
NS1 inh: blocks influenza NS1 protein function; S. cerevisiae slowed by influenza A NS1, growth recovery by OD600; Potency, µM (doses to about 46.1 µM), inactives show at the highest dose activity, positive = more growth; 270,000 compounds, 0.4% hits; note: actives are rising curves; nearly all actives have a fitted effect of over 50% in size
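S. cerevisiae expressing influenza A NS1, grown in glucose, washed, then diluted 1:100 into pH 6.0 -URA galactose medium with 23 nl compound. Growth recovery read as OD600; NS1-free strain serves as control.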
SARS PLpro yeast: blocks SARS-CoV papain-like protease in a yeast assay; Potency, µM (top dose mostly 32.9 µM), without a hit: top-dose activity, positive = growth rescue; S. cerevisiae expressing SARS-CoV PLpro, growth rescue; control for the full effect not named in the record; 330,000 compounds, 0.19% hits; AID 485353; note: 0% is about no effect; nearly all actives have a fitted effect of over 55% in size; growth read by luminescence after 48 h
Marburg entry inh: blocks Marburg virus binding to or entry into cells; 300,000 compounds, 1.8% hits; Marburg virus pseudotyped entry inhibition, cell reporter; control for the full effect not named in the record; about a third of the inactives were read at about 46 µM; Potency, µM (top dose mostly 37.8 µM), inactives show at the top dose activity change, negative = inhibition, hits mostly inhibitors; active = well fitted inhibition curve with a large enough effect; inconclusive = small, poorly fitted or top-dose-only effect, or effect the other way; inactive = flat fitted curve, though single readings scatter; tested in HEK293 cells; about a fifth of its hits are not listed in these tables; note: % is set by controls: 0 for no effect and ±100 for the full control effect; luciferase read-out
RE007 growth inh: less growth of the S. pombe RE007 Vpr strain | 360,000 compounds, 0.21% hits | S. pombe RE007 Vpr strain, BacTiter-Glo ATP luminescence, 24 h; control for the full effect not named in the record | Potency, µM (highest dose often 92.2 µM), without a hit: at the highest dose activity change, negative = less growth; active = well fitted falling curve with a large enough effect; inconclusive = small, poorly fitted or top-dose-only effect; inactive = no such curve, though single readings can be large or run the other way;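 note: % is set by controls: 0 for no effect and ±100 for the full control effect; nearly all actives have a fitted effect of over 50% in size; the assay follows cell death caused by Vpr and the record does not say whether a fall means rescue or toxicity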
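Fission yeast RE007 carrying one integrated HIV-1 vpr copy, seeded at OD 0.01 in PMG+AL medium with 23 nL pinned compound. Grown 24 h at 30 degrees; viability read by BacTiter-Glo luminescence after 5 min.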
StopGo reporter: lowers the luciferase signal of an FMDV 2A StopGo reporter | human cells with a luciferase reporter of 2A StopGo recoding; control for the full effect not named in the record | Potency, µM (top dose mostly 57.9 µM), without a hit: at the highest dose signal change, negative = less light | 410,000 compounds, 1.2% hits | AID 1159524; active = well fitted falling curve with a large enough effect; inconclusive = small, poorly fitted or top-dose-only effect; inactive = no such curve, though single readings can be large or run the other way; tested in HEK293T cells; note: % is set by controls: 0 for no effect and ±100 for the full control effect; nearly all actives have a fitted effect of over 45% in size; luciferase light after 4 h
Lassa entry inh: blocks Lassa virus binding to or entry into cells | Lassa virus pseudotype entry inhibition, cell reporter; control for the full effect not named in the record | Potency, µM (titrated, usually from 37.9 µM), for the others: top-dose activity change, negative = inhibition, actives largely listed as inhibitors | 300,000 compounds, 1.2% hits; active means well fitted inhibition curve with a large enough effect; inconclusive means small, poorly fitted or top-dose-only effect, or effect the other way; inactive means flat fitted curve, though single readings scatter; tested in HEK293 cells; note: % is set by controls: 0 for no effect and ±100 for the full control effect; nearly all actives have a fitted effect of over 50% in size; luciferase read-out
Numbers without * were called inactive; u = inconclusive; x = not tested or not shown; & = joins results of further samples; [ ] = remark or other dose. Unless noted, calls come from the whole dose curve; as a rule, active means well fitted rising curve with a large enough effect; inconclusive means small, poorly fitted or top-dose-only effect; inactive means no such curve, though single readings can be large or run the other way. Potency is the fitted concentration of half-maximal effect.

SMILES	Cruzain noTriton	Cruzain Triton	NS1 inh	SARS PLpro yeast	Marburg entry inh	RE007 growth inh	StopGo reporter	Lassa entry inh
NS(=O)(=O)c1ccc(CCNC(=O)c2ccc3c(c2)OCCO3)cc1	x	x	x	4%	u	5%	1%	-2%
CCn1c(-c2ccc(F)cc2)cnc1SCC(=O)N1CCCCC1C (stereo not given)	1%	3.5%	-7%	-13%	x	x	x	x
O=C(Nc1ncc([N+](=O)[O-])s1)C1CCN(S(=O)(=O)c2cnc[nH]2)CC1	2%	-1.8%	11%	25%	3%	-12%	x	15%
Cc1cc(NC(=O)c2ccc(F)cc2)n(C)n1	x	x	2%	1%	x	-5%	16%	x
COC(=O)c1sccc1NC(=S)Nc1ccc(OC)cc1	x	x	x	1%	-3%[46.1 µM]	3%	23%	-6%
COc1ccc(NC(=O)NCc2ccc3c(c2)OCO3)c(OC)c1	x	x	5%	2%	x	1%	4%	x
CC(=O)Nc1ccc(NC(=O)C2CCCN(C(=O)c3ccc(Cl)cc3)C2)cc1 (stereo not given)	x	x	-1%	-8%	-10%[46.1 µM]	4%	-15%	x
Cc1cc(C)cc(NC(=O)N2CCC(NC(=O)c3ccc(F)cc3)CC2)c1	9%	2.9%	-46%	-4%	7%	15%	-24%	13%
COC(=O)c1ccc(CSc2c(C(C)C)cnc3c2c(=O)n(C)c(=O)n3C)cc1	-5%	0.4%	x	x	x	x	u	u
CC(C)NC(=S)N/N=C/c1cccnc1	x	x	3%	0%	u	4%	-4%	u
C=CCOC(=O)C1=C[C@H](c2ccc(Br)cc2)[C@@H](CCCO)[C@H](OCC)O1	x	x	-1%	1%	x	10%	-15%	x
C/C(=N\N=C1\NC(=O)C(CC(=O)Nc2ccc(C)c(Cl)c2)S1)C(C)(C)C (stereo not given)	x	x	x	-34%	-9%[46.1 µM]	9%	-22%	-19%
O=C1c2ccccc2S(=O)(=O)N1CCOc1ccccc1	-7%	-4.0%	6%	2%	u	-2%	39%[activator]	u
CCOc1ccccc1NC(=O)CN1CCC(NC(=O)c2ccccc2)CC1	14%	3.4%	-3%	2%	u	-4%	-2%	u
Cc1cc(C(=O)CSc2ccc3c(c2)OCCO3)c(C)n1C1CC1	-6%	-6.6%	-10%	7%	u	3%	103%[activator]	u
O=C(O)c1ccccc1SCc1cn2cc(Br)ccc2n1	x	x	3%	0%	-24%[46.1 µM]	15%	-12%	2%[46.1 µM]
CC1CCN(S(=O)(=O)c2cccc(C(=O)NCc3cccs3)c2)CC1	-7%	-3.1%	-8%	0%	-9%	26%	18%	u
CCOc1ccc(/C=N/NC(=O)c2ccccc2Cl)cc1CN1CC2CC(C1)c1cccc(=O)n1C2 (stereo not given)	x	x	x	2%	-2%	-10%	-18%	x
Cc1cc(C)cc(Oc2coc3cc(OCC(=O)NC4CCCCC4)ccc3c2=O)c1	5%	-1.1%	x	x	u	x	-5%	4%[46.1 µM]
COc1c(C=C2C(=O)NC(=O)NC2=O)c(CCN(C)C(=O)c2ccccc2)cc2c1OCO2	x	x	8%	7%	x	9%	-9%	x
O=C(COC(=O)c1cc(S(=O)(=O)N2CCCC2)ccc1O)NCc1ccccc1	x	x	x	0%	u	2%	5%	5%
Cc1cc(C)c(C)c(OCCCN(C)C)c1	24%	-1.6%	10%	10%	-38%	x	-28%	0%
COc1ccc(C(=O)NC(C)c2csc(C)n2)cc1OC1CCN(C(C)=O)CC1 (stereo not given)	x	x	13%	2%	x	23%	-16%	x
CCN(CC)CCCNC(=O)CSc1c2c(nc3cc(Cl)ccc13)CCCC2	u	-11%	x	1%	u	-7%	32µM*	u
CC(C)N1C(=O)C(Cc2nc3ccccc3c(=O)n2-c2ccccc2)c2ccccc21 (stereo not given)	5%	-1.4%	22%	1%	-2%	8%	-11%	u

As entered above:
COc1ccc(C(=O)NC(C)c2csc(C)n2)cc1OC1CCN(C(C)=O)CC1 (stereo not given) – RE007 growth inh: 23%
Cc1cc(C)cc(Oc2coc3cc(OCC(=O)NC4CCCCC4)ccc3c2=O)c1 – Lassa entry inh: 4%[46.1 µM]

Remaining list, next part:
SMILES	Cruzain noTriton	Cruzain Triton	NS1 inh	SARS PLpro yeast	Marburg entry inh	RE007 growth inh	StopGo reporter	Lassa entry inh
Cc1cc(NC(=O)CCCN2C(=O)c3cccc4cccc(c34)C2=O)no1	x	x	0%	0%	8%[46.1 µM]	-10%	3%	5%
O=C(N/N=C/CCc1ccccc1)C1CCCCC1	10%	-2.2%	1%	-7%	-18%	1%	-27%	5%
FC(F)(F)c1ccc(N2CCN(c3ncnc4c3nnn4Cc3ccccc3)CC2)nc1	-15%	1.1%	2%	5%	-29%	5%	-11%	6%
COCCOC1CCN(C(=O)C2CCC(=O)N(CCc3ccccc3)C2)CC1 (stereo not given)	x	x	-2%	12%	0%	3%	20%	-1%
S=c1[nH]nc(-c2ccc(Cl)cc2)n1/N=C/c1ccco1	x	x	3%	0%	x	1%	-21%	x
COc1cc(C(=O)NCC(=O)NC(C)CCc2ccccc2)cc(OC)c1OC (stereo not given)	x	x	-5%	0%	u	8%	-22%	2%[46.1 µM]
CCOc1ccc(C2C(C(N)=O)=C(C)Nc3nc(SCc4ccccc4)nn32)cc1 (stereo not given)	-28%	0.8%	x	x	-3%[46.1 µM]	x	1%	u
O=C(Nc1csc([N+](=O)[O-])c1)Nc1ccccc1Cl	x	x	-113%	-9%	u	-12%	-3%	-8%
N#Cc1ccccc1S(=O)c1ccccc1C(=O)Nc1ccccc1 (stereo not given)	x	x	x	-8%	16%[46.1 µM]	-1%	14%	3%
COc1ccc(OCCOC(=O)c2[nH]c(C)c(C(C)=O)c2C)cc1	x	x	x	-1%	u	7%	-17%	u
Cc1ccc(C(=O)/C=C/c2ccccc2[N+](=O)[O-])cc1	x	x	-9%	-2%	u	3%	0%	u
O=C(Nc1ccc(-c2nc3ccccc3[nH]2)cc1)c1ccc2c(c1)OCO2	-16%	-22%	18%	-4%	u	-18%	x	-19%
COc1ccc(NC(=O)CSC2=Nc3ccccc3C3=NC(CC(=O)NCc4ccc5c(c4)OCO5)C(=O)N23)cc1 (stereo not given)	-18%	-4.4%	x	x	x	x	-14%	3%[46.1 µM]
CC(CCc1ccccc1)NC(=O)c1ccc(NC(=O)c2ccccc2)cc1 (stereo not given)	u	0.4%	14%	-13%	u	4%	6%	u
CC(=O)NC(CCS(C)(=O)=O)C(=O)Nc1cc(C)on1 (stereo not given)	-2%	-1.3%	-10%	11%	x	4%	u	x
O=C(Nc1ccc(CN2CCOCC2)cc1)c1ccc(-c2cccc([N+](=O)[O-])c2)o1	x	x	-2%	2%	x	0%	u	x
CC(C)n1c(N2CCN(C(=O)c3cccs3)CC2)nc2ccccc21	-2%	3.2%	-5%	1%	-4%	4%	0%	-4%
O=C(CNc1n[nH]c(=O)[nH]c1=O)N/N=C/C1CC=CCC1 (stereo not given)	x	x	2%	0%	9%	1%	-5%	2%
CCOc1ccc(C(=O)Nc2c3c(nn2-c2cccc(C)c2C)CS(=O)C3)cc1 (stereo not given)	-13%	-0.9%	1%	8%	x	-9%	-10%	x
COc1ccc(OCc2cc(-c3ccc(Cl)cc3)no2)cc1	x	x	x	0%	-7%[46.1 µM]	11%	13%	16%[46.1 µM]
Cc1ccc(S(=O)(=O)NC(=O)NCc2ccc(F)cc2)cc1	x	x	9%	0%	9%[46.1 µM]	-23%	13%	0%
COc1cccc2c1OC1(C)CC2NC(=O)N1c1cccc(C(=O)Nc2ccc3c(c2)OCCO3)c1 (stereo not given)	-13%	2.5%	-1%	4%	1%&-21%	-23%	-25%	-1%
CN1CCN(c2ccc([N+](=O)[O-])c(NCC3CCCO3)c2)CC1 (stereo not given)	5%	-13%	9%	3%	11%	u	-11%	1%
CCOC(=O)c1oc2cc(OCC(=O)OC)ccc2c(=O)c1-c1ccc(OC)c(OC)c1	x	x	1%	-1%	x	-12%	-9%	x
CC(C)COP(=O)(OCC(C)C)C(O)c1ccc(F)cc1 (stereo not given)	6%	0.7%	7%	-11%	-5%	-2%	49%[activator]	3%

Other records
SMILES	Cruzain noTriton	Cruzain Triton	NS1 inh	SARS PLpro yeast	Marburg entry inh	RE007 growth inh	StopGo reporter	Lassa entry inh
CCOc1ccc(NS(=O)(=O)c2ccc(C(=O)N(CC)CC(=O)NCc3cccs3)cc2)cc1	x	x	-5%	2%	u	0%	-18%	u
CCCCNc1ncnc2c1cnn2-c1ccccc1	9%	-7.7%	-99%	-8%	10µM*	-17%	1%	u
C=C1[C@@H](OC(C)=O)CC[C@]2(C)[C@@H]1C[C@@H]1C[C@H](OC(C)=O)C(C)=C([C@@H](OC(C)=O)[C@@H]2OC(C)=O)C1(C)C	x	x	-16%	-1%	x	-3%	-23%	x
CN(C)S(=O)(=O)c1cccc(C(=O)NCC(C)(C)CNC(=O)c2cccc(S(=O)(=O)N(C)C)c2)c1	x	x	-15%	-2%	u	-12%	16%	0%
O=C(NCC1CCCO1)C(=O)N/N=C/c1ccccc1C(=O)O (stereo not given)	x	x	3%	1%	u	0%	-7%	7%
CCOC(=O)c1c(C)[nH]c(C(=O)N2CCc3cc(OC)c(OC)cc3C2)c1C	x	x	x	2%	-20%	4%	u	u
COC(=O)C1=C(C)N(C)C(=O)NC1c1ccccc1 (stereo not given)	3%	1.5%	6%	-2%	-11%	-8%	-28%	3%
CCN(CCn1cccn1)Cc1cn[nH]c1-c1ccc(OC)cc1F	x	x	-3%	-1%	-21%[46.1 µM]	-12%	-13%	-6%[46.1 µM]
CCn1c(CNC(=O)COc2c(C)cccc2C)nnc1SCC(=O)Nc1nccs1	-15%	1.9%	-17%	5%	u	-9%	-9%	-3%
C/C(CC(=O)Nc1ccc(OCc2ccccc2)cc1)=N\NC(=O)C(=O)Nc1ccc(C)c(Cl)c1	7.9µM*	1.3%	-1%	-13%	u	-18%	11%	u
COc1ccc(C(=O)NNC(=O)CCC(=O)NNC(=O)c2ccc(OC)cc2)cc1	x	x	7%	-1%	u	1%	10%	-6%

An unsorted share of the library. About 4.7% of those tested had a hit in this group.
